gsp ag = activates gsp, the McCune-Albright syndrome mutation | Potency, µM (doses to about 76.9 µM), inactives show top-dose activation (cAMP increase), actives largely listed as activators | gsp mutant cells, cAMP HTRF, 30 min; control for the full effect not named in the record | AID 624287 | actives 0.13% (n = 340,000); active = well fitted activation curve with a large enough effect; inconclusive = small, poorly fitted or top-dose-only effect, or another doubt; inactive = no such curve, though single readings can be large or run the other way; cell line not stated here;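 also: phosphodiesterase inhibitor Ro 20-1724 added with compounds to block cAMP breakdown; potency is read from the fitted curve at half-maximal effect; nearly all actives have a fitted effect of over 60% in size; about a fifth of the inactives were tested at one dose only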
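Cells in DMEM/10% FBS with G418 were pretreated with compounds in DMSO plus […] (300 uM stock) for 30 min at 37C. cAMP was measured by HTRF (cAMP-d2 plus anti-cAMP antibody-K) after 30 min at room temperature.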
gsp antagonist = antagonizes gsp, the McCune-Albright syndrome mutation; gsp-mutant cells, cAMP HTRF, 30 min; control for the full effect not named in the record; Potency, µM (doses to about 76.9 µM), without a hit: at the highest dose activity change, negative = inhibition, usual class: inhibitors; actives 0.4% (n = 340,000); AID 624288; active = falling curve of any shape with a large fitted effect; inconclusive = falling curve, mostly with a smaller effect; inactive = flat or rising curve; cell line not stated here;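 also: intracellular cAMP measured with PDE inhibitor Ro 20-1724 present during compound exposure; potency is read from the fitted curve at half-maximal effect; % is scaled to controls: 0 for no effect and ±100 for the full control effect; nearly all actives have a fitted effect of over 65% in size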
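Cells in G418 medium, seeded 16-24 h, 37C; buffer exchange to DPBS + 1 mM CaCl2, 0.5 mM MgCl2, 0.05% BSA; cpds in DMSO + […] (300 uM stock), 30 min 37C; HTRF cAMP detection.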
ClpP mod = qHTS Assay for Activators of ClpP; Potency, µM (doses to about 57.5 µM), inactives show at the highest dose activity change, negative = active; purified B. subtilis ClpP, FRET peptide cleavage, 20 min; actives 1.9% (n = 340,000); AID 651965, 2013; ATP-dependent Clp protease proteolytic subunit (Bacillus subtilis (strain 168)), P80244; active = well fitted falling curve with a large enough effect; inconclusive = small, poorly fitted or top-dose-only effect; inactive = no such curve, though single readings can be large or run the other way; also: potency is read from the fitted curve at half-maximal effect; the source files actives as falling curves though it sought activators and does not explain the sign; nearly all actives have a fitted effect of over 65% in size; many hits overshoot -100%
Target sequence (P80244 whole entry, looked up): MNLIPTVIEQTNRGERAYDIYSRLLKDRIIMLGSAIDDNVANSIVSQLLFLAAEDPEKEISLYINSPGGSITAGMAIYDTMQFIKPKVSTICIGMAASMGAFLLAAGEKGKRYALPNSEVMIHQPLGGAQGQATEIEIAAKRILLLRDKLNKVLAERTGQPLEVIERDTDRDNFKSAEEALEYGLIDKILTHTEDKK
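Purified B. subtilis ClpP, 10 microg/mL final in Tris/HCl pH8 with KCl, BSA, glycerol and Tween-20, cleaved an Abz/nitrotyrosine-quenched decapeptide. Fluorescence (ex 320, em 430) was read at 0 and 20 min at room temperature. Delta was normalized to 5.8 microM ADEP and DMSO/no-enzyme controls.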
Sfp PPTase inh = inhibitors of Bacillus subtilis Sfp phosphopantetheinyl transferase; Potency, µM, inactives show max response, negative = inhibition, most hits filed as inhibitors; Biochemical Sfp PPTase activity, qHTS; actives 3.5% (n = 310,000); active = well fitted inhibition curve with a large enough effect; inconclusive = small, poorly fitted or top-dose-only effect, or another doubt; inactive = no such curve, though single readings can be large or run the other way;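 also: the enzyme is Sfp with the accession as filed and its product quenches rhodamine fluorescence; potency is read from the fitted curve at half-maximal effect; 0% = enzyme reaction without inhibitor and -100% = no enzyme wells; top concentration of the series not given in the record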
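Reaction rates are the 30-min fluorescence difference (ex 525, em 598 nm) in wells containing 15 nM Sfp, 5 uM rhodamine-CoA and 12.5 uM BHQ-2-YbbR at pH 7.6 with 10 mM MgCl2.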
Menin MLL FP FL = displaces fluorescein MLL peptide from human menin. Fluorescence polarization, fluorescein-MLL peptide displacement from menin. FP activity change, % at 61.4 µM. 290,000 tested, under 10 active; inconclusive = falling polarisation curve, or a change in total fluorescence; inactive = total fluorescence flat and polarisation flat or rising; no compound was filed as active; the % refers to the polarisation; negative = inhibition;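 also: % of control where 0% means no effect; inhibitors lower the polarisation; unlabelled MLL peptide was the positive control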
D2 agonist = activates the human D2 dopamine receptor; activation, % (no concentration beside the values); actives 0.084% (n = 360,000); DiscoveRx PathHunter D2 beta-arrestin, luminescence, 90 min; 100% = 57 uM dopamine signal; P14416; AID 624465; in the data active = activation above about 40%; inconclusive = about 15% to 40%; inactive = below about 15%; also: compound concentration not given in the record; the text of the record calls up to 30% inactive
Target sequence (P14416 whole entry, looked up): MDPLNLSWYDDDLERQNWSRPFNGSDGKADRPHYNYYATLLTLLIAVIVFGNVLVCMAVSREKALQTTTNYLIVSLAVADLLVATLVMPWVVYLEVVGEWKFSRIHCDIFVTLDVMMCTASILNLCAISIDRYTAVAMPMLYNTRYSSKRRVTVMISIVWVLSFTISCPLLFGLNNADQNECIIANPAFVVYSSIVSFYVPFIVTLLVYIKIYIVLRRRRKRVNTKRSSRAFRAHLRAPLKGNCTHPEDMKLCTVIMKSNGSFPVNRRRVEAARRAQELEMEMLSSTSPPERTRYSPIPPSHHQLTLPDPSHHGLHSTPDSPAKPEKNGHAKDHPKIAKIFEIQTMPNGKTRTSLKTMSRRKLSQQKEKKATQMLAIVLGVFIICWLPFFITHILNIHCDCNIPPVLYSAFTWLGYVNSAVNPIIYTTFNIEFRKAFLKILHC
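DiscoveRx PathHunter D2 beta-arrestin cells (2,100/well) attached overnight, then compound-stimulated 90 min at 37 C in HBSS/10 mM HEPES/0.1% Tween-20 buffer; beta-galactosidase complementation read by luminescence after 1 h at ambient temperature. Dopamine 57 uM final (EC100) as control.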
PINK1 modulator = PINK1 expression modulation | actives 0.2% (n = 410,000) | PINK1 immunofluorescence, high-content cytometry, 24 h | Potency, µM (titrated, usually from 76.6 µM), for inactives: top-dose activation (PINK1 increase), most hits filed as activators; active = well fitted activation curve with a large enough effect; inconclusive = small, poorly fitted or top-dose-only effect; inactive = flat fitted curve, though single readings scatter; cell line not stated here;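 also: potency is read from the fitted curve at half-maximal effect; % of control where 0% means no effect; nearly all actives have a fitted effect of over 65% in size; a mitochondrial uncoupler was the plate control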
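Decision-based qHTS: stable cells, 24 h exposure to five compound concentrations, CCCP as control. Fixed cells stained for PINK1 plus nuclear, mitochondrial and cell markers, cytometer read.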
An asterisk follows results filed as active; ? = inconclusive; / = not tested or not shown; & = joins results of further samples; [ ] = remark or other dose. No enrichment for hits. About 5.1% of those tested had a hit in this group.

SMILES	gsp ag	gsp antagonist	ClpP mod	Sfp PPTase inh	Menin MLL FP FL	D2 agonist	PINK1 modulator
O=C1CC(c2nc3ccccc3[nH]2)CN1Cc1ccccc1 (stereo not drawn)	42.0%	3.3%	2.1%	10.0%	0.3	-1.5	0.4%
CCn1c(SCC(=O)c2ccc(O)c(O)c2)nnc1-c1ccc(C)cc1	-37.2%	-16.0%	-0.6%	-16.3%	-4.4	-1.3	2.7%
N#Cc1c(/N=C/c2ccc(Br)s2)sc2c1CCC2	20.3%	-10.9%	-2.8%	5.1%	6.4	9.2	1.4%
CCOC(=O)C1CCN(C(=O)CN(c2ccc3c(c2)OCCO3)S(C)(=O)=O)CC1	-63.7%[inhibitor]	7.6%	0.7%	9.2%	-1.9	-1.8	-1.8%[38.3 µM]
O=C(COC(=O)c1ccc(Cl)c(S(=O)(=O)N2CCOCC2)c1)NCc1ccco1	2.5%[15.4 µM]	-2.8%	/	/	/	-3.6	-1.4%
NS(=O)(=O)c1ccc(CCNC(=O)c2ccc(Br)s2)cc1	?	-5.0%	/	8.9%	2.7	-0.1	2.1%
Cc1ccc2oc(C(=O)Nc3ccc(S(=O)(=O)Nc4ncccn4)cc3)c(C)c2c1	-23.4%	?	0.9%	12.6%	5.0	0.9	9.5%
CC1CCCN(C(=O)c2cc3ccccc3cc2O)C1 (stereo not drawn)	-38.9%[inhibitor]	3.1%	-4.5%	1.5%	1.5	-0.4	0.2%
CCOc1ccc(CC(=O)Nc2c(C(=O)Nc3ccccc3)oc3ccccc23)cc1OCC	-12.6%	9.4%	231.0%	8.5%	-0.4	-4.7	16.0%
COc1cc(OC)c(/C=N/NC(=O)c2ccncc2)cc1Br	8.5%[15.4 µM]	-2.2%	/	8.4%	-0.3	-1.0	0.1%
CC1(C)Cc2[nH]c(=S)c(C#N)cc2CO1	11.4%	-6.0%	-21.0%	10µM*	1.1	-3.3	1.1%
Cc1ccc(S(=O)(=O)NC(=NC(C)C(=O)O)c2ccccc2)cc1 (stereo not drawn)	-35.2%[inhibitor]	-4.0%	0.1%	11.5%	3.9	-2.0	-0.6%
COc1cc2c(cc1Cl)C(=O)C(F)(c1ccccc1)C(=O)N2 (stereo not drawn)	-21.4%	4.3%	-0.5%	-3.9%	0.3	2.4	1.3%
COCC(=O)N(C)C[C@H]1Oc2cc(C#Cc3cccnc3)ccc2S(=O)(=O)N([C@H](C)CO)C[C@H]1C	-26.1%	/	-6.2%	/	/	-3.1	-1.0%
Cc1oc2cc(O)ccc2c(=O)c1-c1cnn(-c2ccccc2)c1	-35.0%[inhibitor]	-33.4%	31.6µM*	6.8%	1.8	3.3	2.8%
Cc1ccc2c(c1C)NC(C)CC2C (stereo not drawn)	-12.8%	-0.3%	-17.5%	-10.6%	?	-4.5	1.4%
O=C(c1cccc(C(=O)N2CCN(c3ccccc3F)CC2)c1)N1CCN(c2ccccc2F)CC1	17.1%	-0.5%	-25.0%	16.7%	3.0	-1.2	-1.4%
CCN(CC)CCNCC1C(=O)O[C@@H]2C[C@@]3(C)CCC[C@H](C)C3=C[C@H]12 (stereo partly drawn)	10.4%[15.4 µM]	4.9%	-2.2%	-26.3%	-1.5	-0.2	-1.5%
Cc1oc(CC(C)C)c(CN)c1C(=O)O	3.4%	6.5%	-2.5%	10.6%	3.6	0.6	4.6%[38.3 µM]
COc1ccc(CC(N)c2csc(NC(=O)Nc3cccc(C(F)(F)F)c3)n2)cc1 (stereo not drawn)	/	/	-0.2%	/	/	?	-1.4%
COc1ccc(CCNC(=O)CC2Nc3ccccc3NC2=O)cc1OC (stereo not drawn)	9.4%	-1.9%	-3.7%	-9.9%	?	2.6	-1.0%
COc1ccc(C(=O)N[C@H](C(=O)Nc2ccc(OC)nc2)C(C)C)cc1	-10.7%	5.4%	-4.9%	11.4%	-16.2	-2.3	2.8%
S=C(NCCc1ccccc1)N1CCN(C2CCCCC2)CC1	?	1.2%	/	3.1%	-2.5	-1.7	-1.8%
CCCn1c2ccccc2c2cnn(CC(=O)O)c(=O)c21	3.8%[15.4 µM]	5.5%	-1.0%	7.8%	1.8	-1.7	0.4%
CC(Sc1nnc(-c2ccccc2Br)n1-c1cccc(C(F)(F)F)c1)C(N)=O (stereo not drawn)	-6.5%[15.4 µM]	15.8%	0.6%	4.9%	-4.6	-1.1	1.1%
COC(=O)[C@H](C)NC(=O)N1CCC(Cc2ccccc2)CC1	6.0%	3.9%	-0.8%	9.6%	4.3	-4.0	1.5%
CCC(CO)Oc1cc(NC(=O)c2cccc([N+](=O)[O-])c2)c2ncn(C(C)C)c2c1 (stereo not drawn)	-0.7%	-12.3%	2.2%	/	/	3.3	1.7%
Cn1ccc2c(-c3cncc4ccccc34)cc3c(c21)C1CCC3O1 (stereo not drawn)	/	/	-28.9%	/	/	-4.8	1.2%
COc1ccc(S(=O)(=O)Nc2cc(C)ccc2OC)cc1C	-21.1%	-2.5%	-0.5%	-2.4%	-1.4	-2.3	12.4%
CSc1nc2nc(-c3cccs3)cc(C(F)(F)F)c2c(=O)[nH]1	?	7.1%	/	10.7%	-14.8	5.1	0.3%
Cn1c(Oc2ccc3c(c2)OCO3)nc2c1c(=O)n(Cc1ccccc1)c(=O)n2C	-16.0%	-0.5%	-2.0%	9.0%	-4.5	0.6	9.0%
CC(C)c1ccc(/C=C2\SC(=S)N(CC(=O)NCCCN3CCOCC3)C2=O)cc1	-4.5%[15.4 µM]	-5.7%	/	-28.7%	/	-2.4	4.1%
COc1ccccc1C(=O)Nc1nc2cc3c(cc2s1)OCCO3	1.3%	2.1%	4.3%	-4.3%	-7.2	0.3	2.4%
CCCCC(=O)NC(=S)NNC(=O)CC	10.2%	6.8%	-1.7%	?	5.3	3.9	-0.4%
Cc1ncoc1C(=O)NCCC(c1ccccc1)c1ccccc1	-8.9%[15.4 µM]	2.2%	/	-9.0%	5.2	-5.0	0.6%
CCCCc1nc2cc(C(=O)N3CCN(c4cnccn4)CC3)ccc2o1	-9.1%	-2.9%	-17.9%	14.6%	2.6	-0.2	-0.2%
CCN(CCNC(=O)CN1CCN(Cc2ccc(Cl)cc2)C1=O)c1ccccc1	?	-12.4%	-1.0%	-6.3%	2.7	-2.4	-1.4%
COc1ccc(-c2nnc(SCCc3ccccc3)n2N)cc1	-61.3%[inhibitor]	2.5%	129.1%	8.8%	5.3	0.0	-1.1%
Nc1nnc(Sc2ncccc2[N+](=O)[O-])s1	1.5%[15.4 µM]	4.2%	-9.1%	-1.5%	-5.0	14.3	-1.8%
COc1ccccc1NS(=O)(=O)c1cc(C(=O)N2CCN(C/C=C/c3ccccc3)CC2)ccc1C	-1.0%	?	4.2%	-5.5%	/	-2.0	-1.0%
COc1ccc2nc(NC(=O)C3CCCN(S(=O)(=O)c4c(C)noc4C)C3)sc2c1 (stereo not drawn)	-31.1%[inhibitor]	-13.6%	-0.8%	16.1%	-2.1	2.5	0.7%
COc1ccc(C)cc1S(=O)(=O)N(C)CC(=O)NC1CCCCC1	-1.6%	2.5%	1.0%	16.8%	0.5	-4.1	3.3%
COc1cc(/C=N/N=C(/N)c2nonc2N)cc(Br)c1OCc1cccc(C)c1	-26.1%	1.2%	0.0%	?	6.3	-3.5	3.2%
CCn1cc([N+](=O)[O-])c(C(=O)Nc2cc(C)on2)n1	-2.1%	5.3%	0.6%	-2.3%	0.5	-2.8	2.9%
CC1(C)CN(c2ccccc2)C(=O)[C@H]1CC(=O)Nc1ccccc1	-20.8%	/	1.0%	/	/	-4.0	0.2%
Cc1cc(Nc2ccc(F)c(Cl)c2)n2ncnc2n1	4.6%	5.1%	-3.9%	1.3%	1.1	-3.6	-3.1%
CCOc1ccc(NC(=O)CCN2C(=S)NC(C)(C)CC2C)cc1 (stereo not drawn)	-6.1%[15.4 µM]	12.7%	0.4%	11.4%	-3.8	8.0	-1.5%
O=C1CCC(c2ccc3ccccc3c2)O1 (stereo not drawn)	-32.1%[inhibitor]	11.5%	/	/	/	-3.3	0.2%
CC(C)(C)OC(=O)n1cc(CCO)c2ccccc21	/	11.6%	2.7%	/	/	-0.1	1.2%
COC(=O)c1ccc(C2NC(=O)c3ccccc3O2)cc1 (stereo not drawn)	5.6%	-0.5%	/	8.2%	0.5	-0.4	0.5%
COc1ccccc1NC(=O)c1ccc2c(c1)CCN2S(C)(=O)=O	-2.6%[15.4 µM]	-1.1%	0.6%	1.2%	0.7	-0.5	0.3%
COc1cc(C(=O)N2CCN(c3ccccc3)CC2)c([N+](=O)[O-])cc1OC	20.4%	-3.2%	1.7%	7.8%	-1.1	-2.2	0.4%
Cc1cc(F)ccc1S(=O)(=O)N1CCCOC1CNC(=O)C(=O)NCCCN1CCOCC1 (stereo not drawn)	7.3%[15.4 µM]	1.5%	-3.1%	4.6%	/	2.6	-0.6%
CC(C)(C)OC(=O)N/N=C/c1cccn1-c1ccc([N+](=O)[O-])cc1	13.6%[15.4 µM]	?	/	9.6%	0.1	-4.7	-1.6%
O=C(COc1ccc(Cl)cc1)NCCCNC(=O)c1cccnc1	-7.5%[15.4 µM]	5.1%	?	16.0%	1.2	-5.0	2.0%
Cc1cc(C(=O)OCC(=O)c2cccs2)c2ccccc2n1	7.8%	-1.9%	/	0.4%	1.7	5.2	0.1%
Nc1nc(Cl)nc2c1ncn2[C@@H]1O[C@H](CO)[C@@H](O)[C@H]1O	/	7.4%	-2.5%	15.3%&19.4%&-7.3%	4.7&-2.1	2.0	-1.1%&-0.9%
CN(C)CCNC(=O)c1cc2ccccc2oc1=O	-15.9%	9.0%	28.2µM*	8.0%	-0.2	2.8	-2.0%
COc1ccc(OC)c(Nc2ncnc3c2cnn3-c2ccccc2)c1	-37.3%	7.3%	-3.0%	-18.4%	-0.5	2.5	0.2%[38.3 µM]
NC(c1ccccc1)c1cccnc1 (stereo not drawn)	-12.3%	5.7%	/	-23.0%	-0.9	-1.1	-0.4%
CCOC(=O)C1CC2=C(CCCC2=O)NC1=O (stereo not drawn)	/	11.8%	-0.3%	/	/	-3.9	-0.6%
COc1ccc(S(=O)(=O)N2CCCCC2)cc1NC(=O)CNc1ccc(F)cc1C	17.6%	-9.4%	-0.5%	/	/	-0.6	4.8%
